Compound activity: PubChem BioAssay, National Center for Advancing Translational Sciences (NCATS)
CtBP-E1A inh = qHTS Assay for Inhibitors of the CtBP/E1A Interaction; CtBP / adenovirus E1A interaction (AlphaScreen); AlphaScreen GST-E1A/His-CtBP binding, 1536-well; active compounds read low; control for the full effect not named in the record; activity change, % (concentration not given with the values); 340,000 compounds, 0.49% hits; AID 651724, 2012; in the data active means activity change below about -65%; inconclusive means about -30% to -65%; inactive means above about -30%; further: on the % scale 0 is the no-effect control and ±100 the full control effect
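Protein mix (5X: 125 nM each GST-E1A, His-CtBP) was incubated with pinned compound 2 h at 37 deg C in dark, in 50 mM Tris pH 8.0 buffer with 300 mM NaCl. Glutathione donor and nickel acceptor beads followed; AlphaScreen signal read after 1 h.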
Six1-Eya2 inh = qHTS Assay for Inhibitors of the Six1/Eya2 Interaction; Homeobox protein SIX1 (Homo sapiens) + Protein phosphatase EYA2 (Homo sapiens), …; AlphaScreen GST-Six1/His-Eya2 binding, biochemical; active compounds read low; control for the full effect not named in the record; activity change, % (concentration not given with the values); 360,000 compounds, 0.56% hits; AID 651725, 2012; in the data active = activity change below about -65%; inconclusive = about -30% to -65%; inactive = above about -30%; further: on the % scale 0 is the no-effect control and ±100 the full control effect
Target sequence (O00167 whole entry, looked up): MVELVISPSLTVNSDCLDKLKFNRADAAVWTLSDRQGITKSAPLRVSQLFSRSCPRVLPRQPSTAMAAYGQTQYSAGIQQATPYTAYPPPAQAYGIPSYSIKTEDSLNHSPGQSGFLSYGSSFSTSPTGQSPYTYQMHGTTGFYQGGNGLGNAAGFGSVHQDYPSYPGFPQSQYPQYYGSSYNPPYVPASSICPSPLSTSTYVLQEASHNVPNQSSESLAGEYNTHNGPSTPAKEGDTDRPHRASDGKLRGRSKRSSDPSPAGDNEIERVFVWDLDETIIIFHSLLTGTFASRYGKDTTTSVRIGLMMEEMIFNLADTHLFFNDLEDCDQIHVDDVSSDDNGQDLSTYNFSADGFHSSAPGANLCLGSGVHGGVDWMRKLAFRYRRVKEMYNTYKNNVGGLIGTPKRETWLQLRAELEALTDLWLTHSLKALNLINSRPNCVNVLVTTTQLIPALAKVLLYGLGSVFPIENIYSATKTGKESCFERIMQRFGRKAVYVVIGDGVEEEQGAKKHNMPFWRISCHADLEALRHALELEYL
Target sequence (Q15475 whole entry, looked up): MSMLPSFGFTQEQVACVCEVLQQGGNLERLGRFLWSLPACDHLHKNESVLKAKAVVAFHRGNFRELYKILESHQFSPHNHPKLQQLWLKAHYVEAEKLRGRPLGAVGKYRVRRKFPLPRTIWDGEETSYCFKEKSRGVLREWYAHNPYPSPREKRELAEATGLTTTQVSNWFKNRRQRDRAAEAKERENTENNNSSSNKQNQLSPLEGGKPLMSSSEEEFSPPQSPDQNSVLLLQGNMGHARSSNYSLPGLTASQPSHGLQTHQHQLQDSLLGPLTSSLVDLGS
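AlphaScreen with GST-Six1 and His-Eya2 (5X mix: 250 nM and 500 nM), glutathione donor and nickel acceptor beads; buffer 50 mM Tris pH 8.0, 300 mM NaCl, 1 mM TCEP; 1 h at 37 C in the dark.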
D2 ag = Beta-Arrestin HTS for Positive Allosteric Modulators of the Human D2 Dopamine Receptor: Agonists; D(2) dopamine receptor (Homo sapiens), P14416; DiscoveRx PathHunter D2 beta-arrestin, luminescence, 90 min; 100% = 57 uM dopamine signal; activation, % (concentration not given with the values); 360,000 compounds, 0.084% hits; AID 624465, 2012; in the data active = activation above about 40%; inconclusive = about 15% to 40%; inactive = below about 15%; further: the text of the record calls up to 30% inactive
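DiscoveRx PathHunter D2 beta-arrestin cells (2,100/well) attached overnight, then compound-stimulated 90 min at 37 C in HBSS/10 mM HEPES/0.1% Tween-20 buffer; beta-galactosidase complementation read by luminescence after 1 h at ambient temperature. Dopamine 57 uM final (EC100) as control.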
Sfp PPTase inh = qHTS Assay for Inhibitors of Bacillus subtilis Sfp phosphopantetheinyl transferase (PPTase) | 4'-phosphopantetheinyl transferase ffp (Bacillus subtilis), Q9F4F7 | Biochemical Sfp PPTase activity, qHTS | Potency, µM, for inactives: max response, negative = inhibition, most hits filed as inhibitors | 310,000 compounds, 3.5% hits | AID 1490, 2009; active means well fitted inhibition curve with a large enough effect; inconclusive means small, poorly fitted or top-dose-only effect, or another doubt; inactive means no such curve, though single readings can be large or run the other way;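 further: the enzyme is Sfp with the accession as filed and its product quenches rhodamine fluorescence; potency means the concentration at half of the fitted maximal effect; 0% = enzyme reaction without inhibitor and -100% = no enzyme wells; top concentration of the series not given in the record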
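Fluorescence-quenching assay: 15 nM Sfp-PPTase preincubated 15 min at room temperature with compound, then 5 uM rhodamine-CoA and 12.5 uM BHQ-2-labelled YbbR peptide added. Fluorescence (ex 525/em 598 nm) read at start and after 30 min; difference gives rate.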
D2 PAM = Beta-Arrestin HTS for Positive Allosteric Modulators of the Human D2 Dopamine Receptor: Potentiators; D(2) dopamine receptor (Homo sapiens), P14416; DiscoveRx D2 beta-arrestin cells, luminescence, 90 min; 100% = 57 uM dopamine signal; potentiation, % (test concentration not listed); 360,000 compounds, 0.23% hits; active = potentiation of 50% or more; inconclusive = 30% to 50%; inactive = 30% or less;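 further: compound concentration not given in the record; tested on top of an EC20 dose of dopamine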
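PathHunter D2 cells, attached overnight at 37 deg C, received compound in DMSO plus dopamine at EC20 (50 nM final) for 90 min at 37 deg C. Beta-arrestin recruitment was read as luminescence after 1 h with detection reagent at ambient temperature.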
PINK1 modulator = A Quantitative High throughput Screen to Identify Chemical Modulators of PINK1 Expression; PINK1 immunofluorescence, high-content cytometry, 24 h; Potency, µM (top dose mostly 76.6 µM), without a hit: at the highest dose activation (PINK1 increase), actives largely listed as activators; 410,000 compounds, 0.2% hits; AID 624263, 2012; active = well fitted activation curve with a large enough effect; inconclusive = small, poorly fitted or top-dose-only effect; inactive = flat fitted curve, though single readings scatter; cell line not stated here;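 further: potency means the concentration at half of the fitted maximal effect; % of control where 0% means no effect; nearly all actives have a fitted effect of over 65% in size; a mitochondrial uncoupler was the plate control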
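A stable cell line was treated with compounds at 5 concentrations for 24 hours, with CCCP as control. PINK1 levels and mitochondrial localization were measured by immunofluorescence with mitochondrial, cell and nuclear markers after fixation, read by laser-scanning cytometry.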
TRPV1 PAM = HTS Assay for Compounds that Act as Potentiators of the Vanilloid Receptor 1; Transient receptor potential cation channel subfamily V member 1 (Homo sapiens), Q8NER1; potentiation, % at 8.33 µM; 320,000 compounds, 0.02% hits; AID 540277, 2011; TRPV1-expressing cells, Fluo-8 calcium influx, capsaicin EC20 potentiation; host cell line not named in the record; control for the full effect not named in the record; active means potentiation above 80%; inconclusive means 30% to 80%; inactive means below 30%; further: 0% is about no effect
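Cells expressing TRPV1 were dye-loaded with Fluo-8 and read kinetically: 10 s baseline, 3 min after compound (agonist portion), then 2 min after EC20 capsaicin (allosteric enhancer portion). Calcium-bound dye fluorescence at 480/520 nm.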
The depositor's hits bear a star; ? = inconclusive; nt = no result given; [ ] = dose if it differs, or a comment. No enrichment for hits (roughly 3.7% active in at least one column).

SMILES | CtBP-E1A inh | Six1-Eya2 inh | D2 ag | Sfp PPTase inh | D2 PAM | PINK1 modulator | TRPV1 PAM
O=C(C(=O)N1CCN(c2cccc(Cl)c2)CC1)c1c[nH]c2ccccc12 | nt | -19.3 | -2.0 | 4.9% | -1.5 | -0.7% | -21.2
CCN(C(=O)CSc1ncnc2sc(C)c(C)c12)C1CCS(=O)(=O)C1 (stereo not given) | 3.3 | -0.5 | 2.0 | -0.1% | 4.2 | -0.1% | 8.0
Cc1ccc(C(=O)N/C(=C\c2ccco2)C(=O)NC2CCS(=O)(=O)C2)cc1 (stereo not given) | 0.1 | -8.0 | -2.9 | 6.5% | -5.3 | 1.4% | 2.3
CC(C)(C)N/C=C(\C#N)S(=O)(=O)c1ccc(Br)cc1 | -8.3 | 3.1 | -1.5 | 9.7% | -1.4 | 0.3% | -2.2
Cc1cccc(C(=O)Nc2nc(C)c(C(=O)Nc3ccc4c(c3)CCC4)s2)c1 | 9.5 | -1.3 | -3.2 | -1.3% | -0.2 | nt | nt
CC(C)(C)[C@H]1C=C(C(=O)NC2CC2)O[C@@H](OCCCCO)C1 | 2.8 | 0.7 | -3.2 | -0.9% | -4.4 | -0.5% | 17.9
COc1c(C)cc(C(O)c2ncc(-c3ccccc3C)[nH]2)cc1C (stereo not given) | -5.4 | -17.8 | -2.4 | nt | -2.0 | 4.7% | nt
CNC(=O)c1ccccc1-c1cn(C)c2ccccc2c1=O | -7.1 | 5.8 | -2.1 | 25.8% | 2.6 | 1.8% | 13.1
CCOc1ccccc1Nc1nc(-c2sc(NC(=O)c3ccco3)nc2C)cs1 | -18.8 | 0.8 | 3.7 | 5.2% | 7.1 | 2.2% | -5.5
Cc1ccc(Cl)cc1N(CC(=O)NC(C)c1ccccc1)S(C)(=O)=O (stereo not given) | 5.9 | 9.3 | 1.9 | 11.3% | 7.8 | 2.8% | 7.7
CC(OC(=O)c1ccc(Cl)c([N+](=O)[O-])c1)C(=O)N1CCN(Cc2ccccc2)CC1 (stereo not given) | nt | -7.3 | 0.7 | nt | 0.2 | -1.6% | -17.1
Cc1cccc2sc(N(CCCN(C)C)C(=O)c3cc4ccccc4oc3=O)nc12 | -2.8 | -8.5 | -3.6 | -22.7% | -28.2 | 14.8% | -6.7
COc1ccc(/C=C2\CCc3ccccc3C2=O)cc1O | -3.4 | -7.0 | -1.0 | -8.0% | -1.6 | -1.9% | -12.5
COc1ccccc1NC(=O)C(C)OC(=O)CN1C(=O)C2CC=CCC2C1=O (stereo not given) | 11.8 | 0.3 | -2.6 | nt | -8.5 | -2.0% | 19.0
O=C(COc1ccc(F)cc1)NCC1(N2CCCCC2)CCCCC1 | -19.7 | 8.5 | -2.0 | nt | -23.1 | 0.5% | -26.3
C#CCOCCOCCOCCNc1nc(N2CCN(C(=O)CCCCCCCCCCNC(=O)[C@@H](CCSC)n3cc(CCO)nn3)CC2)nc(N2CCN(C(=O)CCCCCCCCCCNC(=O)[C@@H]([C@H](C)O)n3cc(C)nn3)CC2)n1 | 1.0 | -7.8 | -2.1 | nt | -7.5 | 2.9% | 4.5
COCCNC(=O)c1cn(C)c2ccccc2c1=O | -1.6 | 0.2 | -2.5 | 14.8% | -3.9 | 0.6% | 4.4
O=C(NCC1CCCO1)c1onc(CSc2cccc(Cl)c2)c1C(=O)O (stereo not given) | -4.6 | -5.8 | -7.1 | 14.3% | -9.0 | -0.3% | 5.2
O=C(O)c1ccc(Nc2ccc(Cl)c(Cl)c2)c([N+](=O)[O-])c1 | 4.0 | -5.6 | 1.2 | -4.0% | 6.3 | 0.1% | 3.2
O=C(NCC1CCCN1S(=O)(=O)c1cccs1)c1ccc(F)c(F)c1 (stereo not given) | 7.1 | -0.4 | -0.9 | nt | -8.2 | 1.0% | 7.5
COc1ccc2c(c1OC)C(=O)OC2Nc1ccccn1 (stereo not given) | 1.5 | 7.8 | -0.1 | -6.2% | 0.1 | -1.0% | 5.1
Cc1cc(NC(=O)CCCOc2ccc(Cl)cc2Cl)no1 | 18.8 | -2.5 | -0.6 | -3.7% | -5.2 | 4.5%[38.3 µM] | ?
O=C1C2CCCN2C(=O)N1CCN1CCN(c2ccccc2)CC1 (stereo not given) | 5.9 | 0.0 | 3.3 | 9.8% | -23.2 | 0.8% | 10.1
CCN(C(=O)Nc1ccccc1)c1ccccc1 | 9.5 | 15.9 | 1.7 | 14.5% | 2.3 | 0.7% | -10.2
CC(C)(C)c1ccc(C(=O)N2CCCN(C(=O)c3ccc(C(C)(C)C)cc3)CC2)cc1 | 0.1 | 6.2 | -1.1 | -14.3% | -4.6 | -1.7% | 26.3

Random excerpt: 2 compounds from above
SMILES | CtBP-E1A inh | Six1-Eya2 inh | D2 ag | Sfp PPTase inh | D2 PAM | PINK1 modulator | TRPV1 PAM
CCOc1ccccc1Nc1nc(-c2sc(NC(=O)c3ccco3)nc2C)cs1 | -18.8 | 0.8 | 3.7 | 5.2% | 7.1 | 2.2% | -5.5
COc1ccc2c(c1OC)C(=O)OC2Nc1ccccn1 (stereo not given) | 1.5 | 7.8 | -0.1 | -6.2% | 0.1 | -1.0% | 5.1

Further compounds follow:
SMILES | CtBP-E1A inh | Six1-Eya2 inh | D2 ag | Sfp PPTase inh | D2 PAM | PINK1 modulator | TRPV1 PAM
O=C(OCC(O)C1OC(c2ccccc2)OC(COC(=O)c2ccccc2)C1O)c1ccccc1 (stereo not given) | -6.5 | -3.8 | 1.3 | nt | 1.2 | 4.0% | nt
O=C(/C=C/c1ccccc1)Nc1ccc2c(c1)C(=O)NC2=O | -2.9 | -5.2 | 12.7 | -5.5% | 10.3 | 7.8% | -18.5
CN(C)C(N)=NCCC[C@H](N)C(=O)O | -23.6 | 1.0 | -3.4 | nt | -24.2 | -0.1% | nt
O=C(OC(C(=O)NC1CCCC1)c1ccccc1F)c1ccco1 (stereo not given) | 4.5 | 4.4 | -1.1 | 1.4% | 5.9 | -0.5% | -4.8
CC(=O)Nc1ccc(S(=O)(=O)NN=CCCc2ccccc2)cc1 | 4.1 | 6.3 | -0.1 | nt | -5.0 | 1.7% | nt
Cc1[nH]c2ccccc2c1-c1csc(NC(=O)CSCC(=O)O)n1 | nt | -14.3 | 1.4 | -9.5% | 0.7 | 1.3% | 17.0
Cc1ccc(S(=O)(=O)N(C)c2ccc(C(=O)NCC(c3ccccc3)N3CCCC3)cc2)cc1 (stereo not given) | 0.0 | -6.4 | -1.9 | nt | -23.4 | 0.9% | nt
COc1ccc(CN2CCCC(C(=O)N3CCCCC3)C2)cc1OC (stereo not given) | nt | 5.4 | -4.6 | -1.1% | -7.4 | -0.2% | 3.9
CC1Cc2ccccc2N1C(=O)CCS(=O)(=O)c1ccc2c(c1)NC(=O)CS2 (stereo not given) | -1.8 | -1.1 | 3.0 | 13.4% | -1.6 | -1.2% | 14.7
COC(=O)c1sccc1NC(=O)c1ccc(Br)s1 | 10.0 | 6.2 | 1.1 | 3.8% | 0.6 | 16.0%[38.3 µM] | 3.7
O=C(NC(=S)NCc1ccccc1)c1ccccc1[N+](=O)[O-] | -1.4 | 6.2 | -3.1 | 10.0% | 0.4 | -0.7% | -2.3
Cc1nc2ccc(NC(=S)NCCCO)cc2nc1C | -13.6 | -15.7 | 4.2 | 56.2µM* | 15.9 | 0.8% | -8.7
COc1ccc(C2C(C(C)=O)=C(C)N=c3s/c(=C\c4ccc5c(c4)OCO5)c(=O)n32)c(OC)c1 (stereo not given) | -3.8 | -11.1 | 0.3 | nt | 4.8 | 0.3% | nt
COC(=O)c1ccc(C(=O)OC)c(NC(=O)CN2CCN(c3ccccc3)CC2)c1 | 3.6 | 0.4 | -2.6 | 3.7% | -15.7 | 18.8%[38.3 µM] | 1.6
Cc1onc(C(=O)NC2CCCCC2)c1[N+](=O)[O-] | nt | 5.0 | -1.3 | 5.9% | -6.4 | 0.7% | 18.5
COc1ccc(NC(=O)c2sc3ncnc(N4CCN(c5ccccn5)CC4)c3c2C)cc1Cl | -14.0 | -13.2 | 11.3 | -7.1% | 8.6 | -1.5% | 9.2
COC(C(=O)Nc1ccc(C(N)=O)cc1)c1ccccc1 (stereo not given) | 1.9 | 0.0 | -0.6 | 25.5% | -6.7 | -0.4% | -3.9
COc1ccc(C(=O)CSc2nnc3n2CCCN3C(=O)Nc2ccccc2)cc1 | 1.5 | -7.8 | -0.4 | 5.2% | -21.6 | 0.8% | 2.9
Cc1c(N(C)C(=O)C23CC4CC(CC(C4)C2)C3)c(=O)n(-c2ccccc2)n1C | -3.0 | 2.5 | -5.0 | -0.3% | -16.7 | -0.7% | -0.2
Cc1cccc(C)c1OCC(=O)Nc1nnc(C2CCCO2)s1 (stereo not given) | -5.8 | 3.9 | 2.1 | 4.7% | -4.2 | 4.6% | 2.5
O=C(Nc1ccccn1)c1cccnc1 | 0.3 | 2.8 | -0.2 | 11.2% | 4.3 | -0.8% | -1.4
O=C(Nc1ccc2ccccc2c1)c1cccc([N+](=O)[O-])c1 | -0.2 | -10.0 | -3.6 | 6.9% | -7.1 | 13.5% | -5.7
O=C(NCCc1ccccc1)C1Cc2c(-c3ccccc3)ccnc2O1 (stereo not given) | -20.8 | -9.1 | -3.8 | nt | -18.2 | 8.2% | nt

Record cards, from the list above. Screens in order: CtBP-E1A inh, Six1-Eya2 inh, D2 ag, Sfp PPTase inh, D2 PAM, PINK1 modulator, TRPV1 PAM
O=C(/C=C/c1ccccc1)Nc1ccc2c(c1)C(=O)NC2=O in the list: -2.9, -5.2, 12.7, -5.5%, 10.3, 7.8%, -18.5
O=C(Nc1ccccn1)c1cccnc1 in the list: 0.3, 2.8, -0.2, 11.2%, 4.3, -0.8%, -1.4
